Ba CapD inh = inhibitors of Bacillus anthracis CapD enzyme. purified CapD enzyme, fluorescence intensity read-out; hits give low values; some hits fall short of the stated cut. z-score (test concentration not listed). 140,000 tested, 0.23% active. AID 492967;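 active = z-score under -4 in either of two replicates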;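 also: stock transfer was 100 nL into about 40 µL; score is relative to mean and spread of the plate; one replicate is shown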
AID504770 = growth inhibitors of E. coli YBA685 in a screen for V. cholerae RctB (chromosome II replication) inhibitors | 130,000 tested, 0.27% active | AID 504770 | z-score (concentration not given with the values) | E. coli YBA685 rctB-dependent plasmid, OD600 growth, 3 h; hits give low values;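 active = z-score under -2 on both plates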;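 also: wells of about 30 µL received 100 nL stock; score is relative to mean and SD of the test wells; the first replicate is given; strong numbers were not always called active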
Active calls of the source: *; · = no result given.

Fields: Ba CapD inh	AID504770
1) CN(C)c1ccc(P(=O)(OCc2ccccc2)C(O)c2ccccc2)cc1 (centres undefined)
→ -0.31	-0.5
2) COc1ccc(NC(Cc2ccccc2)c2ccco2)cc1 (centres undefined)
→ 1.9	-1.1
3) Cc1ccc(NC(=O)Cc2cc(F)cc(F)c2)cc1[N+](=O)[O-]
→ -0.43	·
4) Cc1c(C(=O)NCc2ccco2)cc(-c2ccccc2)n1CCCN1CCOCC1
→ -1	-0.25
5) CCCC(C)C1(CC)C(=O)NC(=O)NC1=O (centres undefined)
→ -0.41	·
6) CC(C)(C)S(=O)(=O)/C(C#N)=C/c1cc2ccccc2o1
→ 1.3	0.05
7) Cc1ccc(OCc2nc(-c3ccc(Cl)cc3)no2)c(Br)c1
→ 0.1	·
8) CCCCNc1nc2ccccc2n1CC(=O)N1CCc2ccccc21
→ ·	-0.7
9) O=C(/C=C/c1cccs1)OCC(=O)c1ccccc1
→ -0.85	-0.95
10) COc1ccc(NC(=O)NCc2ccccc2)cc1
→ 1.2	-0.5
11) CCOC(=O)CC1COc2ccccc2N1C(=O)c1cccc([N+](=O)[O-])c1 (centres undefined)
→ 0.17	·
12) CSc1nc2cc(C)nn2c(-c2ccco2)c1C#N
→ -1.2	-1.1
13) O=c1nc(N2CCOCC2)c(Cl)cn1-c1nc(-c2ccccc2)oc1-c1ccccc1
→ -0.22	·
14) COC(=O)c1cn(C(=O)CCc2ccccc2)c2ccccc12
→ 0.02	0
15) COc1ccc(-c2c(C#N)c(N)nc(SCC(=O)OCc3ccccc3)c2C#N)cc1
→ 6.5	·
16) CN(C)/C=N/c1nnc(SCC(=O)Nc2cc(Cl)cc(Cl)c2)s1
→ 0.93	0.6
17) c1ccc(Nc2c(-c3ccccc3)nc3nc[nH]n23)cc1
→ 1.7	1.2
18) COC(=O)c1sccc1S(=O)(=O)Nc1ccc2c(c1)OCCO2
→ -0.88	-0.8
19) CCOC(=O)c1cnc2ccc(C(=O)OC)cc2c1NCc1ccco1
→ 5.6	-0.35
20) COc1ccc(C(=O)COc2ncnc3cc(Cl)ccc23)cc1
→ -0.065	-0.45
21) Cc1ccccc1C1=CC(Cl)=C(c2cccs2)Oc2ccccc21
→ 0.3	·
22) CCCC(=O)N1CCCC(c2nc3c(nnn3Cc3ccccc3)c(=O)[nH]2)C1 (centres undefined)
→ ·	1.4
23) O=C(NCc1ccc2c(c1)OCO2)c1ccc2c(=O)n(CCC3=CCCCC3)c(=O)[nH]c2c1
→ 2.6	-1.9
24) O=C(O)CSc1nnc(-c2ccco2)n1Cc1ccccc1
→ -0.24	-0.25
25) CCN1C(=O)C(C(=O)c2ccc(OC)cc2)SC1=S (centres undefined)
→ -0.28	-0.55
26) NC(=O)COC(=O)/C=C/c1ccc2ccccc2n1
→ ·	-1.4
27) CS(=O)(=O)c1ccc2c(c1)CCN2C(=O)CCC(=O)O
→ -0.04	·
28) COc1ccc(C2C(C(=O)Nc3cccc(C(F)(F)F)c3)=C(C)NC3=C2C(=O)CC(C)(C)C3)cc1 (centres undefined)
→ 34	·
29) CN1CCN(c2ccccc2NC(=O)c2cc3ccccc3o2)CC1
→ -0.51	-0.05
30) Cc1ccc(NC(=O)CSC2=NCCS2)c(C)c1
→ -0.82	-1.2
31) COC(=O)c1ccccc1NC(=O)COC(=O)c1ccccc1F
→ ·	0.75
32) N#CC1=C(N)N(c2ccccc2C(F)(F)F)C2=C(C(=O)CCC2)C1c1ccc2c(c1)OCO2 (centres undefined)
→ 0.93	·
33) Cc1ccc(OCCN2CCN(c3c4c(c(C#N)c5nc6ccccc6n35)CCC4)CC2)cc1
→ 0.34	0.5
34) Cc1ccc(NC(=O)CN(C)C(=O)/C=C/c2ccco2)cc1
→ ·	-0.4
35) O=C(OCc1cn(-c2ccc(Cl)c(Cl)c2)nn1)C(Cl)(Cl)Cl
→ -0.65	·
36) CCC(C)C(=O)N1c2ccccc2C(N(C(=O)COc2ccccc2)c2ccccc2)CC1C (centres undefined)
→ -0.73	·
37) O=C(CSc1nnnn1-c1ccc(O)cc1)NC(=O)NC12CC3CC(CC(C3)C1)C2
→ ·	-0.85
38) O=C(COC(=O)c1cc2c3c(c1)C1C=CCC1CN3CC1CC=CC21)c1ccc(Br)cc1 (centres undefined)
→ 0.05	·
39) Cc1cc(C)cc(Oc2coc3cc(OC(=O)C4CCCCC4)ccc3c2=O)c1
→ -0.08	-1.2
40) O=S(=O)(c1ccccc1)N1CCC2CCCCC2C1 (centres undefined)
→ 0.01	-0.6
41) Cc1cc(C)c(C#N)c(SCC(=O)NC(C)C23CC4CC(CC(C4)C2)C3)n1 (centres undefined)
→ -0.23	·
42) COc1cc(Cn2c(-c3ccc(O)c(OC)c3)nc3ccccc32)ccc1O
→ 26	-0.45
43) CC(=O)n1nc(C)cc1-c1ccccc1
→ 0.17	-0.55
44) O=C(COc1ccc(-c2ccccc2)cc1)N1CCN(c2ccccc2)CC1
→ -0.15	-0.25
45) CSC(=Nc1c(C)nn(C)c1C)NC#N
→ -0.45	0.95
46) Nc1ccc(S(=O)(=O)Nc2ccc(I)cc2)cc1
→ -0.64	-0.8
47) CC(=O)N1CCN(c2ccnc3cc(Cl)ccc23)CC1
→ -0.84	2.2
48) O=C(CCN1C(=O)c2ccccc2C1=O)Nc1cc(C(F)(F)F)ccc1Cl
→ -0.23	·
49) CCOC(=O)C1CCN(c2nc3ccccc3n2Cc2ccccc2F)CC1
→ -0.29	0.1
50) O=C1S/C(=C\c2cccs2)C(=O)N1Cc1ccccc1
→ 0.26	-0.8
51) O=C(CC1CC(=O)Oc2ccccc21)NCc1ccccc1 (centres undefined)
→ 0.11	0.2
52) O=C(COC(=O)c1cc(NS(=O)(=O)c2cccs2)ccc1O)NC1CCCC1
→ ·	0.05
53) COc1ccnc(N2CCN(C(c3ccccc3)c3ccccc3)CC2)c1C#N
→ 0.1	·
54) O=[N+]([O-])c1cc(C(F)(F)F)cc([N+](=O)[O-])c1N1CCNCC1
→ -0.095	·
55) CCOc1ccc(NC(=O)COC)cc1
→ 0.26	-1.2
56) Cn1c(O)c(N=NC=C2C(=O)CC(C)(C)CC2=O)c2ccccc21
→ ·	-1.1
57) CCOCCOC(=O)C1=C(C)NC2=C(C(=O)CC(c3ccccc3)C2)C1c1ccc(N(CC)CC)cc1 (centres undefined)
→ 0.04	·
58) CN1c2ccccc2C(O)=C(C(=O)Nc2cccc(Cl)c2)S1(=O)=O
→ -0.58	·
59) CC1CCCC(C)N1CCCNC(=O)Cn1c(=O)c2cccn2c2ccccc21 (centres undefined)
→ -1.7	3.4
60) O=c1c(Cl)c(N2CCN(c3ccccn3)CC2)cnn1-c1nc2ccccc2o1
→ -1.3	-0.55

New compounds follow
Fields: Ba CapD inh	AID504770
61) COC(=O)c1ccc2nc(NC(=O)CSc3nc4ccccc4[nH]3)sc2c1
→ 1.8	·
62) CCCCc1c(C)nc(SCC(=O)O)[nH]c1=O
→ -0.73	-0.8
63) NS(=O)(=O)c1ccc(CCn2c(-c3ccc(C4CCCCC4)cc3)csc2=Nc2ccccc2)cc1
→ -0.34	·
64) O=C(O)COCC(=O)Nc1ccc2c(c1)C(=O)OC2
→ 0.29	-0.9
65) CC(=O)N1SC(N)=NC1c1ccccc1 (centres undefined)
→ ·	1.2
66) NC(=O)c1cc2cc(Cl)ccc2oc1=Nc1cc(C(F)(F)F)ccc1Cl
→ 0.55	·
67) COc1cccc(C2C(C#N)=C(N)Oc3c2c(=O)oc2ccccc32)c1OC(=O)c1ccco1 (centres undefined)
→ 0.62	·
68) CC1(C)OC2OC(C(=O)NCCCCCC(=O)OCc3ccccc3)C3OC(C)(C)OC3C2O1 (centres undefined)
→ 0.27	·
69) O=C(NCCC1=CCCCC1)c1cc2cc3ccc(Cl)cc3nc2o1
→ 0.01	0.2
70) CCN(CC)C(=S)NC(=O)Cc1ccccc1
→ 0.15	0.25
71) CC(C)NC(=S)NCc1cccc(Cl)c1
→ ·	-0.15
72) COC(=O)c1sccc1OC(C)c1ccnc2nc(-n3cccc3)nn12 (centres undefined)
→ -0.2	·
73) Cc1sc2ncn3cnnc3c2c1-c1ccc(F)cc1
→ -0.98	1.1
74) CCCc1nnc2n1N=C(c1ccc(OC)c(OC)c1)CS2
→ -0.065	-0.65
75) O=C1C(CO)NC(=S)N1c1ccccc1 (centres undefined)
→ ·	1.2

A draw from above in order of heavy-atom count, low to high:
Fields: Ba CapD inh	AID504770
55) CCOc1ccc(NC(=O)COC)cc1
→ 0.26	-1.2
7) Cc1ccc(OCc2nc(-c3ccc(Cl)cc3)no2)c(Br)c1
→ 0.1	·
58) CN1c2ccccc2C(O)=C(C(=O)Nc2cccc(Cl)c2)S1(=O)=O
→ -0.58	·
68) CC1(C)OC2OC(C(=O)NCCCCCC(=O)OCc3ccccc3)C3OC(C)(C)OC3C2O1 (centres undefined)
→ 0.27	·
28) COc1ccc(C2C(C(=O)Nc3cccc(C(F)(F)F)c3)=C(C)NC3=C2C(=O)CC(C)(C)C3)cc1 (centres undefined)
→ 34	·

Other records
Fields: Ba CapD inh	AID504770
76) CCOC(=O)CSCCOc1ccc(/C=C2/C(=O)NC(=O)N(c3ccc(C)cc3)C2=O)cc1OC
→ 0.28	·
77) c1ccc(Sc2c(-c3ccccc3)nc3ncccn23)cc1
→ 60	-0.7
78) CC(=O)Nc1ccc(-c2nc3ccccc3[nH]2)cc1
→ 57	-1
79) CC(C)C(=O)N1N=C(c2ccco2)CC1c1cn(-c2ccccc2)nc1-c1ccccc1 (centres undefined)
→ ·	0.25
80) Cc1cnc(C(=O)OCC(=O)c2ccc3c(c2)CCCC3)cn1
→ ·	0.55
81) CC(C)C(NC(=O)c1ccc(F)cc1)C(=O)N1CCN(Cc2ccccc2)CC1 (centres undefined)
→ ·	1.1
82) Cc1cc(Cl)c(C(N)=O)c(C)n1
→ 0.18	-0.05
83) O=C(CCc1nnc2c(=O)n(-c3cccc(F)c3)ccn12)NCCC1=CCCCC1
→ -1.6	0.45
84) COc1ccc(/C=C2\C=C(c3ccccc3)N(c3ccc(F)cc3)C2=O)cc1Br
→ -0.02	·
85) Clc1cccc(CNCCNCc2cccc(Cl)c2)c1
→ -0.19	·
86) FC(F)(F)c1cccc(CSc2ncn[nH]2)c1
→ -0.26	-1.1
87) CCN(C(=O)CSc1nnc(CSc2nc3ccccc3s2)n1C)C1CCCCC1
→ ·	-0.1
88) CC1(C)CC(=O)C(=CN2CCN(C(=O)c3ccco3)CC2)C(=O)C1
→ -0.05	-0.55
89) Cc1[nH]c2ccccc2c1C(=O)CSc1cccc[n+]1[O-]
→ 0.46	0.15
90) Cc1cc(C)n(CC(O)CN2C(=O)NC(C)(C)C2=O)n1 (centres undefined)
→ 0.68	-0.2
91) COC(=O)CNC(=O)c1cccnc1Sc1ccc(C)cc1
→ 0.47	-0.25
92) COc1cccc(C=Nc2ccc3c(c2)ncn3C)c1OC
→ ·	-0.05
93) CC(C)=CCC[C@](C)(O)C1CC=C(C)CC1 (some centres undefined)
→ ·	0.45
94) O=C(CCCc1nc(-c2ccccc2)no1)NCc1cccnc1
→ 0.34	-0.55
95) CSc1nnc(COc2ccc(Br)cc2)n1Cc1ccccc1
→ ·	-0.45
96) O=C(CSc1c[nH]c2ccccc12)N1CCc2ccccc21
→ -0.88	0.95
97) Cc1sc2c(c1C)c(=O)n(-c1ccccc1)c1nnc(SC(C)C)n21
→ -0.16	·
98) CCC(C)NC(=O)c1c(O)c2cccc3c2n(c1=O)CCC3 (centres undefined)
→ 5.3	-1.2
99) Cc1ccc2nc(CCC(=O)N3CCCCCC3)[nH]c2c1
→ ·	2
100) CCN(CC)Cc1oc(CO)cc(=O)c1O
→ -1.8	-1.1
101) O=C(O)C1CC(O)CN1Cc1ccccc1 (centres undefined)
→ 0.61	-0.55
102) Clc1ccc(CN2C3=NCCN3c3ccccc32)cc1Cl
→ 0.005	·
103) CN(C)C(=O)NC1CCS(=O)(=O)C1 (centres undefined)
→ ·	0.4
104) O=C(NCCCC(NC(=O)OCCc1ccc(Br)cc1)C(=O)OCc1ccccc1)OCc1ccccc1 (centres undefined)
→ -0.14	·
105) COC(=O)CC[C@@H](C)[C@H]1CC[C@H]2[C@@H]3CC[C@@H]4C[C@H](O)CC[C@]4(C)[C@H]3C[C@H](O)[C@]12C
→ 0.23	-0.8
106) COC(=O)C1=C(C)NC(C)=C(C(=O)OC)C1c1cn(-c2ccccc2)nc1-c1cccc([N+](=O)[O-])c1
→ -0.39	·
107) Cc1ccc(NC2SC(=O)NC2=O)cc1Cl (centres undefined)
→ 0.21	-0.45
108) CCOC(=O)Cc1c(C(=O)OCC)c(C)cn1C
→ -0.11	-0.65
109) Cc1ccccc1N1CC(O)(c2ccccc2)[N+]2=C1SCC2 (centres undefined)
→ -0.2	·
110) Cn1cnnc1SCc1nc2ccccc2c(=O)n1CC#N
→ ·	0
111) CC1CN(C(=O)C(C)Sc2nnnn2C)CC(C)O1 (centres undefined)
→ ·	-0.4
112) O=C(COc1ccc2ccccc2c1)c1ccc(O)cc1O
→ -0.46	-0.85
113) CCCNC(=O)Nc1ccc(I)cn1
→ -0.08	-0.9
114) C=CCN(CC=C)C(=O)c1cc(-c2ccc(OC)cc2)nc2ccccc12
→ 52	·
115) COc1cccc(-n2nnc3c(=O)n(C/C=C/c4ccccc4)cnc32)c1
→ -0.32	-0.05
116) O=C(c1ccccc1Nc1ccc(SC(F)F)cc1)N1CCCCC1
→ ·	0.05
117) CCN(c1ccccc1)S(=O)(=O)c1ccc2[nH]c(=O)cc(C)c2c1
→ ·	0.95

Among those listed so far, these have a nitro group on carbon:
Fields: Ba CapD inh	AID504770
3) Cc1ccc(NC(=O)Cc2cc(F)cc(F)c2)cc1[N+](=O)[O-]
→ -0.43	·
11) CCOC(=O)CC1COc2ccccc2N1C(=O)c1cccc([N+](=O)[O-])c1 (centres undefined)
→ 0.17	·
54) O=[N+]([O-])c1cc(C(F)(F)F)cc([N+](=O)[O-])c1N1CCNCC1
→ -0.095	·
106) COC(=O)C1=C(C)NC(C)=C(C(=O)OC)C1c1cn(-c2ccccc2)nc1-c1cccc([N+](=O)[O-])c1
→ -0.39	·
